Assay outcomes (PubChem)
Mtb bLac sens – beta-lactam sensitization of Mtb H37Rv | actives 0.27% (n = 330,000) | inhibition, % at 25 µM | AID 434955 | M. tuberculosis H37Rv growth with meropenem, percent inhibition; hits of this screen are not shown here;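 active means about 74% or more and at least 40 points above the plate without the antibiotic, then above 30% in a dose series; inconclusive means first-round hits that could not be retested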;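 further: growth measured after seven days incubation then overnight dye step; 0% = bacteria only wells and 100% = bacteria with antibiotic; twin plates without the antibiotic show which effects depend on it; some results filed as inactive read as strong as hits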
The depositor's hits bear a star; ? = inconclusive.

SMILES	Mtb bLac sens
CCCCNC(=O)c1cccc(S(=O)(=O)N2CC3(C)CC2CC(C)(C)C3)c1 (stereo not drawn)	-3
O=S(=O)(c1c(F)cccc1F)N1CCN(Cc2c(O)ccc3ccccc23)CC1	7
C[C@H](CO)N1C[C@H](C)[C@@H](CN(C)Cc2ccc(C(=O)O)cc2)Oc2c(NC(=O)C3CC3)cccc2C1=O	1
O=C(NNC(=O)c1cccc(C(F)(F)F)c1)c1ccc(-n2cnnn2)cc1	-1
O=C(CC1CCCC1)Nc1cc(C(F)(F)F)ccc1-n1cncn1	5
Cc1ccc2c(=O)n3c(nc2c1)C(Cc1ccccc1)NC(=O)c1ccc(Cl)cc1-3 (stereo not drawn)	-5
O=CNc1ccccc1	-3
COc1ccc(-c2ccccc2)cc1NC(=O)c1cccs1	10
Cc1nc(NC(=O)CCc2ccccc2)sc1C	-7
CC(=O)c1ccc(N2Cc3ccccc3C2)cc1	0
COc1cc(NC(=O)CCCN2C(=O)NC(C)(C)C2=O)cc(OC)c1	3
COc1ccc(NC(=O)CSCC(=O)N(C)Cc2ccc3c(c2)OCCO3)cc1	-4
Cc1cccc(C(=O)OCC(=O)N2CC(=O)Nc3ccccc32)c1C	-9
O=C(C[C@H]1C/C=C\CC[C@H](Cc2ccc(F)cc2)C(=O)OC[C@@H](Cc2c[nH]c3ccccc23)NC1=O)NCCO	6
COc1cc(C)c(Cl)cc1S(=O)(=O)NCc1ccccn1	-9
O=C(CN1C(=O)C2CCCCC2C1=O)OCC(=O)c1ccc(F)cc1 (stereo not drawn)	-2
CC1CCCCN1C(=O)CN1CCN(S(=O)(=O)c2ccc(Br)cc2Cl)CC1 (stereo not drawn)	-4
CCCCN(C(=O)CSc1nnnn1C)C1CCS(=O)(=O)C1 (stereo not drawn)	-8
COCc1ccc(-c2c(-c3cccc(OC)c3)sc3ccc(OC)cc23)cc1	35
CNC(=O)c1ccc(NC(=O)CN2c3cccc4cccc(c34)S2(=O)=O)cc1	5
COc1ccc(Cl)cc1NC(=O)CN(C)C(=O)c1cccc(S(=O)(=O)N2CCN(C)CC2)c1	1
Cc1cccc(-c2cc(C(=O)Nc3c(C)n(C)n(-c4ccccc4)c3=O)c3ccccc3n2)c1	?
Cc1cc(C(=O)Cn2cc(C(F)(F)F)ccc2=O)c(C)n1CC1CCCO1 (stereo not drawn)	-2
COc1ccc(CC(=O)N2CCN(S(=O)(=O)c3cc(Cl)ccc3Cl)CC2)cc1	-8
O=C(CSc1nnc(NC(=O)c2ccc(F)cc2)s1)NC1CC1	-2
O=C(CSc1nnc(Nc2ccccc2F)s1)NC1CCCC1	5
CCN(C[C@H]1N[C@@](C)(C(=O)OC)[C@H]2C(=O)N(C)C(=O)[C@@H]12)S(=O)(=O)c1ccc(OC(F)(F)F)cc1	3
CN(CC(=O)NCCc1ccc(S(N)(=O)=O)cc1)S(=O)(=O)c1ccc(Br)s1	-2
C=C[C@](C)(CC[C@@]1(C)C(C)CC(OC2OC(C)C(OC3OC(COC(C)=O)C(O)C(O)C3O)C(O)C2O)[C@@]2(C)C(C)=CCCC12)OC1OC(C)C(O[C@@H]2O[C@@H](C)C(O)C(O)[C@H]2O)C(O)C1O (stereo partly drawn)	-2
COC(=O)c1c(-c2ccsc2)sc2ccc(-c3cc(OC)c(OC)c(OC)c3)cc12	83
Cc1onc(-c2c(Cl)cccc2Cl)c1C(=O)Nc1ccc(C(N)=O)cc1	-4
Cc1ccc(NC(=O)C(C)Sc2nnc3ccccn23)cc1 (stereo not drawn)	3
Cc1ccc(C)c(C(=O)CCC(=O)OCn2nnc3ccccc3c2=O)c1	50
CC(=O)O[C@H]1[C@H](O)[C@H](Oc2c(O)c(C)c3c4c2[C@@H](C)CC[C@@H]4[C@@H](C)C[C@H]3C=C(C)C)O[C@@H](C)[C@H]1O	6
CCNS(=O)(=O)c1ccc(C(=O)OCC(=O)N2CCCc3ccccc32)cc1	7
O=C(Cc1csc(-c2ccc(F)cc2)n1)Nc1cccc(S(=O)(=O)NC2=NCCC2)c1	-1
COc1cc(OC)cc(C(=O)NCC(=O)N2CCCCCCC2)c1	-4
COC(=O)C1=C(c2ccc(F)cc2F)C[C@@H]2CC[C@H]1N2C(=O)NCCOc1ccc(OC)cc1	6
Cc1cccc(C)c1NC(=O)CNC(=O)C1COc2ccccc2O1 (stereo not drawn)	-2
CCN(CC)C(=O)c1cccc(NC(=O)c2cc(-c3ccccn3)nc3ccccc23)c1	8

Another view of 2 compounds above:
Cc1onc(-c2c(Cl)cccc2Cl)c1C(=O)Nc1ccc(C(N)=O)cc1
  Mtb bLac sens = -4
Cc1ccc(NC(=O)C(C)Sc2nnc3ccccn23)cc1 (stereo not drawn)
  Mtb bLac sens = 3

Additional compounds
SMILES	Mtb bLac sens
COc1ccc(CNC(=O)CCC(=O)Nc2cccnc2)cc1	-4
COc1ccc2c(c1)[C@H]1[C@H](CO2)[C@H](c2ccccc2)[C@]2(C)C(=O)Nc3cc(F)ccc3C(=O)N12	7
CCOc1ccc(N2CC(C(=O)Nc3cccc(C(=O)NC4CC4)c3)CC2=O)cc1 (stereo not drawn)	16
COc1cc(CC(=O)N2CCN(S(=O)(=O)c3ccc(C)cc3)CC2)cc(OC)c1OC	-7
CN(CCCC(=O)N1CCN(c2ncccn2)CC1)S(=O)(=O)c1ccc(F)cc1	-4
Cc1ccc(C(=O)NNC(=O)c2cccc(S(=O)(=O)N3CCOCC3)c2)cc1	-3
CCOC(=O)[C@H]1[C@H]2COc3cc(OC)ccc3[C@@H]2N2C(=O)CN(CCc3c[nH]c4ccccc34)C(=O)[C@@]12C	55
Nc1c(N(Cc2ccco2)C(=O)c2ccc(Cl)cc2)c(=O)[nH]c(=O)n1Cc1ccccc1	2
CCN(CC)S(=O)(=O)c1ccc(N2CC(C(=O)N3Cc4ccccc4CC3C(N)=O)CC2=O)cc1 (stereo not drawn)	1
Cc1nc(SCC(=O)Nc2nccs2)c(C#N)c(C)c1C	-5
CCC(C)N(C(=O)CSc1nc(C)c(C)c(C)c1C#N)C1CCS(=O)(=O)C1 (stereo not drawn)	-1
Cc1ccc(S(=O)(=O)N2CCN(C(=O)COC(=O)c3ccccc3Cl)CC2)c(C)c1	-3
C[C@@H]1CCC(=O)N(C[C@@H](C)CSc2ccc(Br)cc2)CC1	1
COc1cccc(-c2nc3c(c(=O)[nH]c(=O)n3Cc3ccccc3)n2CCO)c1OC(F)F	-3
COc1ccccc1S(=O)(=O)N1CCNC(=O)C1	-5
O=C(NN=Cc1c(F)cccc1F)c1ccccc1NS(=O)(=O)c1cccs1	5
COC(=O)[C@]1(Cc2ccccc2)N[C@H](CN(C)S(=O)(=O)c2ccc(OC(F)(F)F)cc2)[C@@H]2C(=O)N(C)C(=O)[C@@H]21	-8
COc1ccc(S(=O)(=O)N(C)C[C@H]2Oc3c(NC(=O)Nc4ccc(C(F)(F)F)cc4)cccc3C(=O)N([C@H](C)CO)C[C@@H]2C)cc1	91
COc1cc(CC(=O)OCC(=O)NCc2cccs2)cc(OC)c1OC	-3
COc1ccc(NC(=O)N(C)C[C@H]2Oc3ccc(NC(=O)Cc4ccccc4)cc3CC(=O)N([C@H](C)CO)C[C@H]2C)cc1	8
O=C(c1ccc(-c2ccc([N+](=O)[O-])cc2)o1)N1CCN(S(=O)(=O)c2cccs2)CC1	3
COc1ccc(OC)c(CN2CCN(c3ccc(S(=O)(=O)N4CCCC4)cn3)CC2)c1	-9
NC(=O)c1c(NC(=O)c2cccnc2)sc2c1CCCCC2	0
O=C(O)c1cccc(S(=O)(=O)Nc2ccc(Cc3ccncc3)cc2)c1	-4
COc1cc(C(=O)NC2CCN(CC(=O)Nc3cccc(C)c3C)CC2)cc(OC)c1OC	-17
Cc1c(NC(=O)C(C)Sc2nccn2C)c(=O)n(-c2ccccc2)n1C (stereo not drawn)	1
CC(C)Nc1nnc(SCC(=O)N2CCN(C(=O)c3ccco3)CC2)s1	12
C/C(=N\NC(=O)c1ccccc1OCc1ccc(F)cc1)c1ccccn1	100
COCCn1c(C)cc(C(=O)CN2C(=O)NC3(CCCCCC3)C2=O)c1C	-10
CC(C)(CNC(=O)C1c2ccccc2-c2ccccc21)N1CCOCC1	2
O=C(NCCN1CCOCC1)c1ccc(S(=O)(=O)Nc2ccccc2)cc1	0
CC(C)(C)OC(=O)N1CCC(C(=O)Nc2ccc3c(c2)CCC3)CC1	-5
Cc1ccc(S(=O)(=O)N2CCOCC2)cc1NC(=O)CSc1nnc2n1CCCCC2	-1
O=C(COC(=O)COc1ccc(Br)cc1)Nc1ccc2c(c1)OCCO2	-4
O=S(=O)(N/N=C1\CCCc2ccccc21)c1ccccc1	-3
COCCN(C(=O)c1csnn1)C(C(=O)NC1CCCC1)c1ccccc1F (stereo not drawn)	0
COc1cccc(/C=N/NC(=O)c2cc(-c3ccccn3)nc3ccccc23)c1O	6
CCn1nnc2cc(C(=O)Nc3cc(Cl)ccc3C)ccc21	3
Cc1ccc2c(c1)C(=O)C(=O)N2Cc1ccccc1	3
CCCn1nnc(NC(=S)NC(=O)c2ccccc2OC)n1	-1
CC1CCCN(S(=O)(=O)c2cccc(C(=O)NCC3CCCO3)c2)C1 (stereo not drawn)	-1
COc1ccc(C(C)(C)C)cc1NC(=O)COC(=O)c1nc2nccc(C)n2n1	0
O=C(c1ccco1)N1CCN(C(=O)c2cn(-c3ccccc3)nc2-c2ccccc2)CC1	-4
Cn1c(N)c(C(=O)CSc2nnc(C3CC3)n2-c2ccccc2)c(=O)n(C)c1=O	-10
COC(=O)[C@]1(C)N[C@H](CN(C)C(=O)NC(C)C)[C@@H]2C(=O)N(Cc3ccccc3)C(=O)[C@@H]21	-5
CN(C(=O)c1cccc(NC(=O)C2CCN(C(=O)OC(C)(C)C)CC2)c1)C1CCCCC1	1
CCOC(=O)Cc1cn(C(=O)OC(C)(C)C)c2ccccc12	3
CC(C)(C)OC(=O)C[C@H]1C/C=C\C[C@@H](CC(=O)N[C@H](CO)Cc2ccccc2)C(=O)NCCOC1=O	12
C=CCn1c(=O)c(C(=O)NCc2ccccc2)c(O)c2ccccc21	11
CCc1nc2nc(C)c(NS(=O)(=O)c3ccc(C)c(C)c3)c(=O)n2[nH]1	5
O=C(Cn1cnc2c(OCc3ccccc3)ncnc21)NCc1ccc2[nH]ccc2c1	0
COc1ccc(-n2nc(C(=O)NCC(=O)N3CCC(C(N)=O)CC3)c3ccccc3c2=O)cc1	-5
O=C(CCSc1ccccc1)NNC(=O)c1ccccc1F	62
O=C(O)c1cc([N+](=O)[O-])ccc1NCc1ccccn1	4
Cc1cc(SCC(=O)N2CCN(C(=O)c3ccco3)CC2)c(C)cc1Br	9
CCN(CC)C(=O)c1sc(NC(=O)c2ccc3c(c2)OCO3)c(C(N)=O)c1C	-7
CN(C(=O)COC(=O)C1CCN(S(=O)(=O)c2ccc(Cl)cc2)CC1)C1CCS(=O)(=O)C1 (stereo not drawn)	3
CCC(=O)OC(Cc1ccccc1)(c1ccccc1)[C@H](C)CN(C)C (stereo partly drawn)	-3
CC(CCc1ccccc1)NC(=O)CCNS(=O)(=O)c1ccccc1C(F)(F)F (stereo not drawn)	5
Cn1cc(S(=O)(=O)N2CCOCC2)cc1C(=O)O	-5

Shown field by field: 4 of the compounds above
> CCN(CC)C(=O)c1sc(NC(=O)c2ccc3c(c2)OCO3)c(C(N)=O)c1C
  Mtb bLac sens = -7

> CN(C(=O)COC(=O)C1CCN(S(=O)(=O)c2ccc(Cl)cc2)CC1)C1CCS(=O)(=O)C1 (stereo not drawn)
  Mtb bLac sens = 3

> CCC(=O)OC(Cc1ccccc1)(c1ccccc1)[C@H](C)CN(C)C (stereo partly drawn)
  Mtb bLac sens = -3

> CC(CCc1ccccc1)NC(=O)CCNS(=O)(=O)c1ccccc1C(F)(F)F (stereo not drawn)
  Mtb bLac sens = 5

Fetched by structure from the list above:
SMILES	Mtb bLac sens
C=CCn1c(=O)c(C(=O)NCc2ccccc2)c(O)c2ccccc21	11
CC1CCCN(S(=O)(=O)c2cccc(C(=O)NCC3CCCO3)c2)C1 (stereo not drawn)	-1

New compounds follow
SMILES	Mtb bLac sens
COc1ccccc1CNC(=O)COC(=O)CNS(=O)(=O)c1ccc(NC(C)=O)cc1	-4
COCCN(C(=O)c1ccc(C)o1)c1c(N)n(CC(C)C)c(=O)[nH]c1=O	-3
NC(=O)c1cc([N+](=O)[O-])ccc1NCc1ccc(N)cc1	-9
COC(=O)C1=C(c2ccc(-c3ccccc3)c(F)c2)C[C@@H]2CC[C@H]1N2C(=O)NCc1ccc(F)cc1	7
CC(Sc1nnc(-c2cccs2)n1C1CC1)C(=O)NCC1CCCO1 (stereo not drawn)	2
CC1CCN(c2ccc3c(c2)S(=O)(=O)c2cccc(C(=O)NCc4cccc(F)c4)c2C3=O)CC1	1
CCn1c(SC(C)C(=O)Nc2ccc(N3CCOCC3)cc2)nnc1C1CC1 (stereo not drawn)	-4
N#Cc1ccc(CN2C(=O)NC3(CCCCCC3)C2=O)cc1	-8
COc1cccc(NC(=O)c2cc(-c3ccccn3)nc3ccccc23)c1	15
Cc1ccc(OCC(=O)N2CCC(C)CC2)c([N+](=O)[O-])n1	2
Cc1cccc(NC(=O)c2nc[nH]c2C(=O)N[C@H](C)c2ccccc2)c1	99
CCCCCC[N+](=O)[O-]	1
CN(CC(=O)Nc1ccc(F)c(F)c1F)C(=O)c1nn(Cc2ccccc2)c(=O)c2ccccc12	-12
O=S(=O)(Nc1cc(Cl)ccc1-n1cncn1)c1ccc(F)cc1	6
COC(=O)C1=C(c2ccccc2OCc2ccccc2)C[C@@H]2CC[C@H]1N2C(=O)NCc1ccc([N+](=O)[O-])cc1	-8
CNC(=O)NC(=O)COC(=O)c1n[nH]c2ccccc12	-4
CC(=NNS(=O)(=O)c1cccc([N+](=O)[O-])c1)c1ccc(-n2ccnc2)cc1	-9
Cc1nnc(NC(=O)c2ccc(S(=O)(=O)C(F)F)cc2)s1	-6

This is a subset, so the mix of outcomes need not match the whole.
